Screening results as filed in PubChem.
UUG fidelity: yeast start codon fidelity modulation; S. cerevisiae UUG-firefly luciferase reporter, luminescence/redox ratio; activity score, % at 18.7 µM; actives 0.13% (n = 350,000);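 active means replicate mean at a twofold rise or more, about +100% in these data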;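 further: firefly luciferase made from a UUG start codon reports start codon fidelity; reporter light over untreated wells divided by growth signal over untreated wells; some hits fall short of that in this replicate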
Env fusion inh: HIV envelope-mediated fusion inhibition; AID 651610; actives 1.1% (n = 360,000); HeLa-JRFL Env/CEM21 cell fusion, luciferase; inhibition, % at 12.3 µM;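 active means mean replicate inhibition score of at least 50 and every replicate individually at or above 50; inconclusive means only one of the two criteria met; inactive means mean below 50 and not all replicates reaching 50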;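 further: 0% = plate neutral controls and 100% = maraviroc near 300 nM; one replicate is shown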
Active calls of the source: *; ? = inconclusive; [ ] = dose if it differs, or a comment. An excerpt; rates above refer to the full screens.

SMILES	UUG fidelity	Env fusion inh
Cn1cnc(S(=O)(=O)N[C@H]2CC[C@H](CC(=O)N3CCN(c4ccccc4)CC3)O[C@H]2CO)c1	-6.0	10.9[16.7 µM]
O=C(N[C@@H]1CC[C@@H](CCNC(=O)C2CCC2)O[C@@H]1CO)c1ccncc1	-11.6	9.1[16.7 µM]
COc1ccc(NC(=O)N(C)C[C@H]2OCCCC[C@H](C)Oc3ccc(NC(=O)Nc4c(C)noc4C)cc3C(=O)N([C@@H](C)CO)C[C@@H]2C)cc1	-0.6	13.1[16.7 µM]
Cc1noc(C)c1S(=O)(=O)N(C)C[C@H]1OCCCC[C@H](C)Oc2ccc(NC(=O)Nc3ccccc3)cc2C(=O)N([C@@H](C)CO)C[C@@H]1C	-0.5	64.6*[16.7 µM]
C[C@@H](O)C#Cc1cnc2c(c1)C(=O)N([C@@H](C)CO)C[C@H](C)[C@@H](CN(C)Cc1cccc(C(=O)O)c1)O2	-3.7	7.3[16.7 µM]
C[C@H](NC(=O)C[C@H]1CC[C@@H](NC(=O)Nc2ccc3c(c2)OCO3)[C@@H](CO)O1)c1ccccc1	-12.4	-0.8[16.7 µM]
O=C(Cc1c[nH]c2ccccc12)N1CCN(S(=O)(=O)c2ccc(F)cc2)CC1	2.5	10.3
O=C(C[C@H]1C[C@H]2c3cc(NC(=O)Nc4ccccc4F)ccc3O[C@H]2[C@H](CO)O1)NC1CCCC1	-22.4	-1.8[16.7 µM]
CO[C@H]1CN(C)C(=O)c2cc(NS(=O)(=O)c3ccc(-c4ccccc4)cc3)ccc2OC[C@@H](C)NC[C@@H]1C	-10.9	10.5[16.7 µM]
COc1ccccc1C(=O)Nc1ccc2c(c1)OC[C@H](C)N(C)C[C@H](C)[C@@H](OC)CN(C)C2=O	-3.4	-5.1[16.7 µM]
Cc1ccc(S(=O)(=O)N(C)C[C@H]2Oc3ccc(NC(=O)CCC(F)(F)F)cc3C(=O)N([C@@H](C)CO)C[C@H]2C)cc1	37.9	9.2[16.7 µM]
C[C@H](CO)N1C[C@H](C)[C@@H](CN(C)Cc2cncnc2)Oc2ncc(C#CC3CCCCC3)cc2C1=O	6.5	-7.1[16.7 µM]
C[C@H](NC(=O)C[C@H]1CC[C@@H](NC(=O)C2CCOCC2)[C@H](CO)O1)c1ccccc1	-3.2	-8.7[16.7 µM]
C[C@H](CO)N1C[C@H](C)[C@@H](CN(C)CC2CCOCC2)Oc2cc(C#C[C@@H](C)O)ccc2S1(=O)=O	0.8	13.8[16.7 µM]
COCC#Cc1cnc2c(c1)C(=O)N([C@H](C)CO)C[C@@H](C)[C@@H](CN(C)C(=O)Nc1c(C)noc1C)O2	-0.2	-4.6[16.7 µM]
C[C@@H]1CCCCO[C@H](CN(C)C(=O)Cc2ccccc2)[C@H](C)CN([C@H](C)CO)C(=O)c2cc(NS(=O)(=O)c3cccs3)ccc2O1	18.4	4.7[16.7 µM]
O=C(C[C@@H]1CC[C@@H](NC(=O)C2CCC2)[C@@H](CO)O1)NCc1ccncc1	0.3	-13.5[16.7 µM]
COc1ccc(S(=O)(=O)Nc2cccc3c2O[C@H](CN(C)S(=O)(=O)c2ccccc2)[C@H](C)CN([C@H](C)CO)C3=O)cc1	-5.3	1.4[16.7 µM]
C[C@H](CO)N1C[C@H](C)[C@@H](CN(C)Cc2ccccc2F)Oc2cc(C3=CCCCC3)ccc2S1(=O)=O	1.0	27.7[16.7 µM]
C[C@@H]1CN([C@@H](C)CO)C(=O)c2cc(NC(=O)Nc3ccc4c(c3)OCO4)ccc2O[C@@H]1CN(C)CC1CCCCC1	17.1	4.9[16.7 µM]
COc1ccc(S(=O)(=O)Nc2ccc3c(c2)C(=O)N([C@@H](C)CO)C[C@H](C)[C@@H](CN(C)C(=O)Nc2ccc4c(c2)OCO4)OCCCC[C@@H](C)O3)cc1	5.1	-64.5[16.7 µM]
C[C@@H]1CN([C@@H](C)CO)C(=O)Cc2cc(NC(=O)CCCCCC(=O)Nc3ccccc3N)ccc2O[C@H]1CN(C)S(C)(=O)=O	-5.5	5.4[16.7 µM]
N#C[C@@H]1[C@@H](c2ccc(C#CC3CCCC3)cc2)[C@H](CO)N1C(=O)Nc1ccc(F)cc1	-18.8	6.6[16.7 µM]
NCC[C@@H]1CC[C@H](NC(=O)C2CCCC2)[C@H](CO)O1	-1.9	-1.4[16.7 µM]

Random excerpt: six entries already listed.
SMILES	UUG fidelity	Env fusion inh
C[C@@H]1CN([C@@H](C)CO)C(=O)c2cc(NC(=O)Nc3ccc4c(c3)OCO4)ccc2O[C@@H]1CN(C)CC1CCCCC1	17.1	4.9[16.7 µM]
O=C(C[C@@H]1CC[C@@H](NC(=O)C2CCC2)[C@@H](CO)O1)NCc1ccncc1	0.3	-13.5[16.7 µM]
N#C[C@@H]1[C@@H](c2ccc(C#CC3CCCC3)cc2)[C@H](CO)N1C(=O)Nc1ccc(F)cc1	-18.8	6.6[16.7 µM]
C[C@@H]1CCCCO[C@H](CN(C)C(=O)Cc2ccccc2)[C@H](C)CN([C@H](C)CO)C(=O)c2cc(NS(=O)(=O)c3cccs3)ccc2O1	18.4	4.7[16.7 µM]
C[C@H](CO)N1C[C@H](C)[C@@H](CN(C)CC2CCOCC2)Oc2cc(C#C[C@@H](C)O)ccc2S1(=O)=O	0.8	13.8[16.7 µM]
COc1ccc(S(=O)(=O)Nc2cccc3c2O[C@H](CN(C)S(=O)(=O)c2ccccc2)[C@H](C)CN([C@H](C)CO)C3=O)cc1	-5.3	1.4[16.7 µM]

The list goes on:
SMILES	UUG fidelity	Env fusion inh
Cc1ccc(S(=O)(=O)Nc2ccc3c(c2)C(=O)N([C@H](C)CO)C[C@H](C)[C@H](CN(C)C(=O)NC2CCCCC2)OCCCC[C@@H](C)O3)cc1	6.3	-35.1[16.7 µM]
COc1cccc(-c2cn(CC[C@@H]3CC[C@H](NS(=O)(=O)c4ccccc4Cl)[C@H](CO)O3)nn2)c1	-8.8	-51.4[16.7 µM]
COCC#Cc1cnc2c(c1)C(=O)N([C@H](C)CO)C[C@H](C)[C@@H](CN(C)C(=O)Cc1ccccc1)O2	-9.3	20.3[16.7 µM]
C[C@@H]1CN([C@H](C)CO)C(=O)c2cc(NC(=O)Nc3ccc(F)cc3)ccc2O[C@H]1CN(C)C(=O)Nc1ccc(F)cc1	15.0	-4.5[16.7 µM]
COc1ccc(-c2ccc3c(c2)O[C@@H](CN(C)C)[C@@H](C)CN([C@H](C)CO)S3(=O)=O)cc1	-0.4	1.1[16.7 µM]
COCC#Cc1cnc2c(c1)C(=O)N([C@H](C)CO)C[C@@H](C)[C@@H](CN(C)C(=O)C1CCC1)O2	7.4	-4.4[16.7 µM]
COc1ccc(CN(C)C[C@H]2Oc3ccc(NS(C)(=O)=O)cc3CC(=O)N([C@H](C)CO)C[C@H]2C)cc1	2.2	14.2[16.7 µM]
C[C@@H](O)C#Cc1cnc2c(c1)C(=O)N([C@@H](C)CO)C[C@H](C)[C@@H](CN(C)C(=O)Nc1ccc(C(F)(F)F)cc1)O2	10.4	3.7[16.7 µM]
CCC(=O)N(C)C[C@H]1Oc2ncc(C#Cc3cccnc3)cc2C(=O)N([C@H](C)CO)C[C@@H]1C	-9.7	-6.0[16.7 µM]
CCCNC(=O)N(C)C[C@H]1Oc2ncc(C#C[C@@H](C)O)cc2C(=O)N([C@H](C)CO)C[C@@H]1C	2.2	4.7[16.7 µM]
C[C@@H]1CN([C@H](C)CO)C(=O)Cc2cc(NC(=O)Cn3cnnn3)ccc2O[C@@H]1CN(C)Cc1ccccc1	-1.1	-16.1[16.7 µM]
C[C@@H]1CN([C@@H](C)CO)C(=O)c2cc(C3=CCCCC3)cnc2O[C@H]1CN(C)Cc1ccncc1	-10.4	10.5[16.7 µM]
COCCNC(=O)C[C@H]1C=C[C@@H](NS(=O)(=O)c2ccc(C)cc2)[C@@H](CO)O1	-6.0	-19.8[16.7 µM]
C/C=C/c1ccc2c(c1)O[C@H](CN(C)C(C)=O)[C@@H](C)CN([C@@H](C)CO)S2(=O)=O	9.6	-4.3[16.7 µM]
C[C@H]1CN([C@@H](C)CO)C(=O)c2cc(NS(=O)(=O)c3cn(C)cn3)ccc2O[C@H]1CN(C)C(=O)Nc1ccc(C(F)(F)F)cc1	-9.3	2.7[16.7 µM]
C[C@@H]1CN([C@@H](C)CO)C(=O)c2cc(/C=C/c3ccccc3)cnc2O[C@H]1CN(C)C(=O)C1CCOCC1	-0.7	14.5[16.7 µM]
C[C@H](CO)N1C[C@H](C)[C@@H](CN(C)Cc2ccc(C(=O)O)cc2)OCCCC[C@H](C)Oc2ccc(NC(=O)Nc3ccc(F)cc3)cc2C1=O	6.0	-1.3[16.7 µM]
O=C(N[C@H]1CC[C@H](CCn2cc(C3(O)CCCC3)nn2)O[C@@H]1CO)C1CCOCC1	-7.6	12.8[16.7 µM]
Cc1noc(C)c1NC(=O)Nc1ccc2c(c1)C(=O)N([C@@H](C)CO)C[C@@H](C)[C@@H](CN(C)Cc1ccncc1)OCCCC[C@@H](C)O2	-0.9	-13.1[16.7 µM]
CNC[C@@H]1Oc2ccc(NC(=O)CCC(F)(F)F)cc2C(=O)N([C@@H](C)CO)C[C@H]1C	-6.0	19.9[16.7 µM]
C[C@H](CO)N1C[C@H](C)[C@@H](CN(C)C(=O)NC2CCCCC2)Oc2ccc(NC(=O)CCC(F)(F)F)cc2CC1=O	27.8	-8.6[16.7 µM]
C[C@H]1CN([C@@H](C)CO)C(=O)c2cccc(NC(=O)C3CC3)c2O[C@@H]1CN(C)S(=O)(=O)c1ccccc1	-4.4	4.0[16.7 µM]
CC(C)CC#Cc1cnc2c(c1)C(=O)N([C@H](C)CO)C[C@H](C)[C@H](CN(C)C(=O)CN1CCOCC1)O2	-0.8	11.0[16.7 µM]
CCNC(=O)C[C@@H]1CC[C@@H]2[C@@H](COc3ccc(NC(=O)c4ccccc4)cc3C(=O)N2C)O1	-8.1	-9.0[16.7 µM]
COCc1cn(CC[C@H]2CC[C@H](NC(=O)Nc3c(C)noc3C)[C@H](CO)O2)nn1	193.8*	3.6[16.7 µM]
O=C(Cc1ccccn1)NCC[C@H]1CC[C@H](NC(=O)Nc2ccccc2)[C@H](CO)O1	24.6	5.2[16.7 µM]
COC(=O)C[C@@H]1CC[C@@H]2[C@H](COc3ccc(NC(=O)Nc4ccc(C#N)cc4)cc3C(=O)N2C)O1	-1.1	-20.2[16.7 µM]
O=C(C[C@H]1C=C[C@H](NC(=O)C2CC2)[C@@H](CO)O1)Nc1ccccc1	-15.5	14.2[16.7 µM]
CN1C(=O)c2cc(NC(=O)C3CCOCC3)ccc2OC[C@@H]2O[C@H](CC(=O)NCC3CC3)CC[C@H]21	4.4	17.3[16.7 µM]
C[C@H](CO)N1C[C@H](C)[C@H](CN(C)C(=O)Nc2cccc3ccccc23)OCCCC[C@H](C)Oc2ccc(NC(=O)Nc3ccc(F)cc3)cc2C1=O	2.9	11.4[16.7 µM]
CCC(=O)Nc1ccc2c(c1)OC[C@@H](C)N(CCC(F)(F)F)C[C@H](C)[C@H](OC)CN(C)C2=O	-3.7	-1.7[16.7 µM]
O=C(C[C@H]1C[C@@H]2c3cc(NS(=O)(=O)c4ccccc4)ccc3O[C@@H]2[C@H](CO)O1)NCC1CC1	-18.2	-5.9[16.7 µM]
COc1ccc(S(=O)(=O)Nc2cccc3c2O[C@@H](CN(C)Cc2ccc(C(F)(F)F)cc2)[C@H](C)CN([C@@H](C)CO)C3=O)cc1	16.5	-51.1[16.7 µM]
Cc1ccc(S(=O)(=O)N(C)C[C@@H]2Oc3ccc(NC(=O)NC(C)C)cc3C(=O)N([C@@H](C)CO)C[C@@H]2C)cc1	11.2	-3.5[16.7 µM]
C[C@@H]1CCCCO[C@@H](CN(C)C)[C@H](C)CN([C@H](C)CO)C(=O)c2cc(NS(=O)(=O)c3cccs3)ccc2O1	4.4	2.3[16.7 µM]
COc1ccc(NC(=O)Nc2ccc3c(c2)CC(=O)N([C@H](C)CO)C[C@@H](C)[C@@H](CN(C)S(=O)(=O)c2ccc(OC)cc2)O3)cc1	2.9	6.3[16.7 µM]
Cc1ccc(S(=O)(=O)N(C)C[C@H]2OCCCC[C@@H](C)Oc3ccc(NC(=O)Nc4c(C)noc4C)cc3C(=O)N([C@H](C)CO)C[C@@H]2C)cc1	0.6	-4.8[16.7 µM]
O=C(CN1CCOCC1)NCC[C@@H]1CC[C@H](NC(=O)Cc2ccccn2)[C@H](CO)O1	-14.5	-33.9[16.7 µM]
COc1cccc(C#Cc2ccc3c(c2)O[C@@H](CN(C)S(=O)(=O)c2ccccc2F)[C@H](C)CN([C@@H](C)CO)S3(=O)=O)c1	0.1	33.9[16.7 µM]
C[C@H](CO)N1C[C@H](C)[C@@H](CN(C)Cc2ccc(C(=O)Nc3ccccc3N)cc2)Oc2ccc(NC(=O)Cc3cn(C)c4ccccc34)cc2CC1=O	23.9	-17.0[16.7 µM]
O=S(=O)(N[C@H]1CC[C@H](CCn2cc(-c3cccc(F)c3)nn2)O[C@@H]1CO)c1ccc(Cl)cc1	4.2	?
CCC(=O)Nc1ccc2c(c1)OC[C@@H](C)N(Cc1ccccc1C(=O)O)C[C@H](C)[C@@H](OC)CN(C)C2=O	2.5	1.9[16.7 µM]
C[C@@H]1CN([C@H](C)CO)C(=O)Cc2cc(NC(=O)Nc3cccc4ccccc34)ccc2O[C@@H]1CN(C)C(=O)Nc1ccc(F)cc1	15.1	-10.3[16.7 µM]
Cc1ccc(S(=O)(=O)N[C@H]2CC[C@@H](CCn3cc(C(C)C)nn3)O[C@@H]2CO)cc1	-6.9	16.5[16.7 µM]
O=C(N[C@@H]1CC[C@H](CCn2cc(C3(O)CCCC3)nn2)O[C@@H]1CO)C1CCCCC1	7.3	-4.8[16.7 µM]
CNC[C@@H]1Oc2ccc(NC(=O)Nc3ccc(OC)cc3)cc2CC(=O)N([C@H](C)CO)C[C@@H]1C	6.3	2.4[16.7 µM]
CC(=O)N(C)C[C@H]1Oc2ncc(C3=CCCC3)cc2C(=O)N([C@H](C)CO)C[C@H]1C	0.2	5.3[16.7 µM]
